Compound activity (PubChem)
RanGTP-Impb inh: inhibitors of RanGTP-importin-beta interaction, primary screen, biochemical, FRET, CFP-Ran, YFP-importin-beta, homogeneous. actives 1.1% (n = 300,000). inhibition, % (test concentration not listed). cell-free CFP-Ran/YFP-importin-beta FRET ratio;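 active = most replicates above 15%; inconclusive = exactly half above 15%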;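 also: 0% = DMSO wells and 100% = Ran loaded with GDP instead of GTP; wells of about 40 µL received 100 nL stock; the first replicate is given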
Beta apoptosis: beta cell apoptosis inhibition; INS-1E cytokine-induced death, ATP luminescence, 48 h; percent of positive-control rescue, neutral wells zero; protection from apoptosis, % (no concentration beside the values); actives 0.8% (n = 300,000);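 active = all replicates at 75% or more, or half of them and the mean; inconclusive = half reach 75% but not the mean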;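 also: 0% = cytokine-treated negative control wells and 100% = positive control rescue; higher means more ATP so stronger rescue from cytokine killing; wells of about 40 µL received 100 nL stock; the first replicate is given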
Ecoli rRNA inh: inhibitors of bacterial rRNA selective over humanized ribosomes. E. coli WT GFP vs humanized-ribosome RFP mutants, fluorescence, 24 h; hits give low values; DMSO median 0, no signal -100. GFP signal change (wild-type ribosome), % (concentration not given with the values). actives 1.6% (n = 350,000);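 active = significant combined selectivity score with lowered wild-type GFP, culture density cut under 30%, mutant RFP and density less affected; inactive = any of these conditions unmet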; also: one replicate is shown; some compounds called inactive have numbers as strong as hits
Bfl-1 A1 inh: inhibitors of the anti-apoptotic protein A1, read as caspase activation; MEF A1-2A-BIM cells, Caspase-Glo 3/7 luminescence, 3 h; percent of clofoctol response, vehicle zero; caspase activation, % (no concentration beside the values); actives 0.066% (n = 330,000); AID 2462;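 active = over half of replicate activation scores above 10%, or exactly half above 10 with the replicate mean above 10; inconclusive = replicate mean below 10 yet half the replicates above 10; inactive = over half of replicates below 10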;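 also: wells of about 30 µL received 50 nL stock; many hits fall short of the cut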
T cruzi repl: T. cruzi replication inhibition. T. cruzi beta-gal in NIH3T3, luminescence, 90 h. inhibition, % (concentration not given with the values). actives 1.4% (n = 300,000). AID 1885;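 active = mean inhibition across valid replicates above about 55%, limit read from the data; inconclusive = mean below that limit but half or more replicates reach it; inactive = mean below it, under half of replicates reach it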;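 also: signal also drops with host cell toxicity which is not excluded here; 0% = plate median of DMSO wells and 100% = zero luminescence signal; higher percent means less beta-gal luminescence so fewer parasites; stock transfer was 50 nL into about 50 µL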
Calb FLC: affects C. albicans growth with fluconazole; AID 1979; actives 0.57% (n = 300,000); growth inhibition, % (test concentration not listed); C. albicans CaCi-2 (fluconazole-resistant clinical isolate) + fluconazole, Alamar Blue growth, 48 h;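 active = most replicates above 75%; inconclusive = exactly half above 75%; inactive = most below 75%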;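 also: all wells also contain fluconazole at 8 µg/ml as a sub-toxic cotreatment; 0% = median of DMSO wells and 100% = median of geldanamycin control wells; wells of about 8 µL received 7.5 nL stock; the first replicate is given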
AF4-AF9 inh: MLL-AF4/AF9 protein interaction inhibition | AID 651704 | AlphaScreen, biotin-AF4 peptide binding to FLAG-AF9 | actives 0.47% (n = 350,000) | inhibition, % at 10 µM | P42568;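 active = every replicate reaching a set inhibition limit, whatever the replicate mean, cut at about 25% in these data; inconclusive = mean inhibition reaches that limit but some replicates miss it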;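 also: 0% = plate neutral control median and 100% = total signal loss; the record names both 10 and 1 µM as test concentration; the first replicate is given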
Target sequence (P42568 whole entry, looked up): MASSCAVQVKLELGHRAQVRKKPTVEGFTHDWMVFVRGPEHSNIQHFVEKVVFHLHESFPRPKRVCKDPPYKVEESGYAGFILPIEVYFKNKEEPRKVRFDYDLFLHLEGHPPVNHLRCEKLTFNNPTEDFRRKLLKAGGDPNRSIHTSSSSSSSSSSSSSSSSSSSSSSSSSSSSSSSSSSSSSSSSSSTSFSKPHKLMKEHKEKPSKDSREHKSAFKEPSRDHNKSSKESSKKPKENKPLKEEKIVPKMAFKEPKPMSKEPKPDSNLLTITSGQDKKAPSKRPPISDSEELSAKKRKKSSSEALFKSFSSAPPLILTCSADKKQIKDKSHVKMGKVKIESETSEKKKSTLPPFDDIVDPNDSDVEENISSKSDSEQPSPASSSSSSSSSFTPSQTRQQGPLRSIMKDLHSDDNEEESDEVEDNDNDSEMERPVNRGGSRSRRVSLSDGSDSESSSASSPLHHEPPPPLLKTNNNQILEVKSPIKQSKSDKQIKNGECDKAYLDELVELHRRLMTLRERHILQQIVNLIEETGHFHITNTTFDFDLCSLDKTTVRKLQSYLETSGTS
Vif TR-FRET: HIV-1 Vif–A3G interaction blockers – biochemical, TR-FRET, GST-Vif 1-94, biotin-A3G peptide, dose response retest, primary screen (AID 1117319); TR-FRET GST-Vif / biotin-A3G peptide binding; higher % means a stronger effect; test concentration not given here; strong numbers were not always called active; inhibition, %; hits with a dose series show IC50 in µM; actives 0.57% (n = 260,000);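 active = above the screen mean plus three standard deviations and confirmed in dose response; inconclusive = results disagree or hit not tested in dose response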;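 also: Vif residues 1-94 fused to GST binding biotinylated APOBEC3G peptide 110-148; 0% = full assay without inhibitor and 100% = GST in place of GST-Vif; retest series ran down from 100 µM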
Ecoli rRNA inh OD600: also measured in Ecoli rRNA inh; calls as there; OD600 change, %; measured here: OD600 growth;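 optical density of the mix in the first replicate; 0 = DMSO median and -100 = no signal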
Ecoli rRNA inh RFP: second read-out of Ecoli rRNA inh, no call of its own (marks repeat the call); RFP signal change, %; measured here: RFP humanized mutant strains;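 first replicate; 0 = DMSO median and -100 = no signal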
Numbers without * were called inactive; ? = inconclusive; . = no result given; & = joins results of further samples. Not all compounds are listed (hit frequency here may not be typical).

SMILES	RanGTP-Impb inh	Beta apoptosis	Ecoli rRNA inh	Ecoli rRNA inh OD600	Ecoli rRNA inh RFP	Bfl-1 A1 inh	T cruzi repl	Calb FLC	AF4-AF9 inh	Vif TR-FRET
COc1cc2c(cc1NC(=O)C1CCCO1)oc1ccccc12 (stereo not given)	.	-2	.	.	.	-0.8	-2	-4	.	-3%
NC(=O)c1ccc(Oc2ccc(C(N)=O)cc2)cc1	?	-3	7	10	-0.1	-0.1	-10	9	-3.3	-5%
CC1(c2nnc(-c3ccc(F)cc3)o2)CC(c2c(Cl)cccc2Cl)=NO1 (stereo not given)	-0.8	1	-27	-28	-4.2	0.4	-14	5	-0.5	-10%
CC(C)C(C(=O)Nc1nccs1)c1ccc(Cl)cc1 (stereo not given)	0.8	2	-22	-27	-3.9	-0.4	15	20	0.5	-4%
O=C(O)c1ccc(Cl)c(S(=O)(=O)NC(Cc2c[nH]c3ccccc23)C(=O)O)c1 (stereo not given)	?	1	4	10	0.1	0.9	10	-1	-3.2	-6%
N#Cc1c(C(F)(F)F)cc(-c2ccc(F)cc2)[nH]c1=O	-0.9	1	-24	-35	-5.1	0.5	-18	-5	-3.7	.
Cc1ccc(-n2c(-c3cc(-c4ccco4)[nH]n3)n[nH]c2=S)c(Br)c1	-2.7	.	2	5	-1.5	0.1	-14	-1	-9.2	6.4µM*
COC(=O)CNC(=O)C1CC(=O)N(CCc2ccc(F)cc2)C1 (stereo not given)	-2.3	-4	22	14	0.5	0.6	-3	-3	-8.2	2%
Cc1ccccc1/C=C/C(=O)NCC(=O)N1CCC(N(C)C2CCCCC2C)CC1 (stereo not given)	-1.5	4	22	9	-1.9	-0.4	-9	-4	3.8	-4%
COc1cc(NC(=O)c2cncc(-c3ccc(C#N)cc3)c2)cc(C(=O)Nc2cccc(C(F)(F)F)c2)c1	-1.5	24	11&5	5&3	-0.5&6.1	2.4	-32	-13	1.7&-3.4	0%
C#CC(C)(CC)NC(=O)c1cc2nc(C3CC3)cc(C(F)(F)F)n2n1 (stereo not given)	2.7	2	7	23	0.2	0.1	13	8	0.7	.
CCOCCCNC(=O)CSc1ccccc1	-0.4	-2	.	.	.	0.1	-8	0	.	-5%
Cc1ccc(-c2nn(-c3ccccc3)cc2/C=C(\C#N)c2cccc(C#N)c2)o1	2.0	10	.	.	.	0.3	14	3	.	1%
COc1ccc(-c2[nH]ncc2CN(CC2CCC(=O)N2)C(C)C)cc1F (stereo not given)	-0.1	7	13	-1	-4.5	0.0	4	5	.	?
Cc1cccc(N2CCN(C(=O)c3ccc(Cl)c(NC4=NC5CS(=O)(=O)CC5S4)c3)CC2C)c1 (stereo not given)	-9.6	-2	2	-3	-5.0	1.3	0	-3	2.1	.
CC(C)Oc1ccc(C(=O)Nc2ccc(N3CCN(C(=O)c4ccco4)CC3)cc2)cc1	2.1	0	4	4	-1.3	0.1	15	-9	-12	.
CSCC[C@H](NC(=O)N1CCn2c1nc1ccccc12)C(=O)N[C@H](Cc1ccccc1)C(=O)O	-2.4	2	9	14	5.8	0.2	-6	-5	-0.4	.
COc1cc2oc(=O)cc(C)c2c(OC)c1OC	3.8	2	3	-7	-1.2	0.5	6	11	-2.4	9%
CCOc1ccc(C(=O)OCC(=O)N(Cc2ccccc2)Cc2ccccc2)cc1OC	.	-11	-9	-12	-4.1	1.4	.	.	-1.6	3%
COc1ccc(CC(=O)O/N=C(\N)c2ccccc2)cc1OC	-3.1	2	-22*	-13*	0.5*	0.8	-13	5	-3.3	-10%
O=C(NCc1ccco1)Nc1cccs1	1.6	-11	2	4	6.4	-0.9	-11	-3	.	?
COC(=O)c1ccc(CSc2nnc3nc(C)cc(C)n23)cc1	-1.8	1	-1	-3	-0.3	-0.1	1	31	-0.8	4%
COc1ccc(Nc2ccc(N3C(=O)CC(C)C3=O)cc2[N+](=O)[O-])cc1OC (stereo not given)	-1.4	5	-6	-1	-0.9	-0.8	-12	1	-3.8	-6%
O=C(NCc1cccnc1)c1cccs1	0.4	-4	-4	-3	-2.8	-1.1	2	-12	-1.7	-8%
CCc1ccc2oc(-c3ccc(NC(C)=O)cc3)nc2c1	-1.1	6	-22	-23	-1.7	-4.6	32	-2	-0.4	.
CN(C(=O)COC(=O)CCc1nc2ccccc2c(=O)[nH]1)C1CCS(=O)(=O)C1 (stereo not given)	0.8	-5	17	14	-0.5	-0.3	-2	5	0.5	-5%
CC(=O)c1cccc(S(=O)(=O)N2CCCC(c3nc4c(nnn4Cc4ccc(C)cc4)c(=O)[nH]3)C2)c1 (stereo not given)	2.0	6	4	4	0.6	0.1	9	-6	-6.3	-1%
COc1ccc(CN2CNc3c(c(=O)n(C)c(=O)n3C)C2)cc1	?	-7	8	20	-2.3	0.3	1	5	0.4	-2%
O=C(CSc1nc2c(cnn2-c2ccc(F)cc2)c(=O)[nH]1)N1CCCCC1	8.0	5	-5	-17	8.9	0.1	-10	23	-4.2	1%
Cc1ccc(C(=O)Nc2ccccc2C(=O)NCc2ccccc2)cc1	-0.3	0	.	.	.	0.3	11	-7	.	-21%

The final two entries of the section above open the next one:
SMILES	RanGTP-Impb inh	Beta apoptosis	Ecoli rRNA inh	Ecoli rRNA inh OD600	Ecoli rRNA inh RFP	Bfl-1 A1 inh	T cruzi repl	Calb FLC	AF4-AF9 inh	Vif TR-FRET
O=C(CSc1nc2c(cnn2-c2ccc(F)cc2)c(=O)[nH]1)N1CCCCC1	8.0	5	-5	-17	8.9	0.1	-10	23	-4.2	1%
Cc1ccc(C(=O)Nc2ccccc2C(=O)NCc2ccccc2)cc1	-0.3	0	.	.	.	0.3	11	-7	.	-21%
C=CC[C@H](CC(=O)N[C@H](CO)Cc1ccccc1)C(=O)N[C@@H](COC(=O)[C@@H](CC=C)Cc1ccc(F)cc1)Cc1c[nH]c2ccccc12	.	5	5	16	-2.8	0.0	.	.	-12	.
COc1ccc(C(=O)NCC(=O)N/N=C(\C)Cc2ccccc2)cc1	5.2	4	22	27	6.6	0.1	3	1	-2.0	21%
CCCNc1nc(N2CCOCC2)nc(N2CCOCC2)n1	0.9	-1	.	.	.	-1.1	10	5	.	-1%
COc1ccc(CC(=O)NC(C)c2nnc(SCC(=O)Nc3ccccc3)n2C)cc1 (stereo not given)	-1.7	-2	0	-3	-2.2	0.6	2	-10	1.3	-4%
COc1ccc(C2=NOC3(CC(=O)N(c4ccc(Cl)cc4)C3=O)C2)c(OC)c1 (stereo not given)	-0.3	-1	7	2	-5.7	-0.4	3	-3	-0.3	7%
CCOC(=O)CCNC(=O)CCNC(=O)C(c1ccccc1)c1ccccc1	0.6	-12	7	8	0.7	-0.7	-4	-2	0.5	-6%
COc1cccc(-n2c(SCC(=O)NCC3CCCO3)nc3c(c2=O)SCC3)c1 (stereo not given)	-2.4	.	12	20	1.1	1.0	5	-7	-5.6	.
O=S(=O)(c1cc(F)ccc1F)N1CCN2CCCC2C1 (stereo not given)	4.4	4	15	12	6.9	-0.9	-4	5	0.0	1%
CCn1c(=N)c(S(=O)(=O)c2ccc(C)cc2)cc2c(=O)n3ccccc3nc21	-1.4	-3	11	9	1.5	-0.4	18	18	-0.2	-1%
O=C(NC(=S)Nc1ccc2[nH]c(=O)[nH]c2c1)c1cncc(Br)c1	-2.8	-9	3	5	-5.9	-0.2	-6	1	-0.2	6%
COC(=O)c1ccc(C(=O)OC)c(NC(=O)CCS(=O)(=O)Cc2ccccc2)c1	5.1	3	7	5	2.6	0.8	0	-4	-5.1	.
COCCOC(=O)C1=C(C)NC(=O)NC1c1cc2c(cc1Br)OCO2 (stereo not given)	2.9	-2	7	2	0.9	2.1	1	-1	0.1	-17%
c1ccc(CCN(Cc2ccccc2)Cc2nc(C3CC3)no2)cc1	1.5	-3	11	-4	-3.5	-0.5	21	36	-2.7	.
CCOc1ccc(C)cc1S(=O)(=O)NC1CCCCC1	1.8	-9	.	.	.	-0.8	26	?	.	23%
O=C1N(Cc2cccnc2)C[C@@H]2C[C@@H](c3cccc(OCc4ccccc4)c3)N3CCC[C@@]123	6.7	-2	-2	-4	-0.1	0.0	24	-9	1.9	-14%
CN(CCCC(=O)Nc1ccncc1)S(=O)(=O)c1ccc(Cl)cc1	-3.8	-1	.	.	.	0.2	5	-5	.	-3%
S=C(Nc1ccc(Br)cc1)N1CCN(c2ccccn2)CC1	1.7	-8	-3	0	-1.3	1.2	-5	12	-7.2	.
CC(=O)C1=C(O)C(=O)N(c2ccc(F)cc2)C1c1ccc(C)cc1 (stereo not given)	5.6	12	-39	-52	-0.7	0.4	8	5	-21	.
O=S(=O)(NCc1nc2ccccc2[nH]1)c1ccccc1	0.6	2	11	15	3.8	0.9	-2	-8	1.7	.
CCCCc1c(O)nc(SCC(=O)NCC2CCCO2)[nH]c1=O (stereo not given)	-2.9	7	.	.	.	-0.1	-21	3	.	-5%
CC(=O)c1c(C)[nH]c(C(=O)COC(=O)CNS(=O)(=O)c2ccccc2)c1C	-2.5	.	.	.	.	0.3	-3	-1	.	7%
Cc1ccc(/C(O)=C2\C(=O)C(=O)N(C)C2c2ccc(F)cc2)cc1 (stereo not given)	?	9	4	-5	-0.7	-0.4	-21	-2	2.2	.
Nc1nnc(CC(=O)N/N=C/c2cc([N+](=O)[O-])cc(Br)c2O)s1	.	-1	-6	1	-1.4	-0.3	-6	.	-5.3	.
CC1CCN(C(=O)C2CCN(c3nnc(-n4cccc4)s3)CC2)CC1	1.3	1	-15	-10	0.5	-0.8	-28	-4	1.1	.
COc1cccc(NC(=O)N2CCN(c3ccc(C(F)(F)F)cn3)CC2)c1	-5.2	4	.	.	.	0.0	8	-3	.	23%
COc1cccc(NC(=O)CN(C)C(=O)c2c(C)noc2C)c1	.	-7	7	4	-3.7	2.0	.	.	0.2	-7%
O=C(NCCCN1CCOCC1)c1ccc2nc(Cc3ccccc3F)oc2c1	0.9	-6	11	10	2.4	-1.4	5	2	0.8	4%
CCCCN(C(=O)c1cccc(N2C(=O)c3ccccc3C2=O)c1)c1c(N)n(CC(C)C)c(=O)[nH]c1=O	.	-2	13	12	-1.1	0.1	.	.	-3.8	9%
c1ccc(CN2CCC(Nc3ncnc4sccc34)CC2)cc1	8.5	18	10	3	1.7	0.9	25	-30	-2.9	-7%
C=CCn1c(SCC(=O)NCCCC)nc2scc(-c3ccco3)c2c1=O	0.2	-7	.	.	.	0.2	3	-5	.	20µM*
Cc1ccc(C(=O)NC(=O)CSc2nncn2C)cc1	-5.9	-5	8	11	-1.2	0.0	-2	0	-0.6	.
CC(=O)c1c(C)[nH]c(C(=O)OCn2nnc3ccccc3c2=O)c1C	6.1	-5	.	.	.	-0.4	26	-10	.	-4%
